# AID923: qHTS Assay for Allosteric/Competitive Inhibitors of Caspase-1: Spectroscopic Profiling in AFC Spectral Region | compound fluorescence, AFC spectral region (405/520 nm); almost no hit is shown here | Potency, µM (series often up to 57.5 µM), for inactives: at the highest dose fluorescence increase, hits mostly activators | 75,000 compounds, 1.1% hits | AID 923, 2007; active = well fitted activation curve with a large enough effect;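 also: 0% is about no effect; scaled to a free AFC standard on each plate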
#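 Baseline compound fluorescence (AFC region, 405 nm ex/520 nm em) taken from the intercept of kinetic reads with 50 nM caspase-1 and 5 uM Ac-WEHD-AFC; normalized to an on-plate AFC standard curve; compounds titrated up to 57 uM.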
# Numbers without * were called inactive; & = joins results of further samples; [ ] = dose if it differs, or a comment. Potency is read from the fitted curve at half-maximal effect. Not all compounds are listed, so the mix of outcomes need not match the whole.
SMILES,AID923
CCC1OC(=O)C(C)[C@@H](O[C@H]2C[C@@](C)(OC)C(O)C(C)O2)C(C)[C@@H](O[C@@H]2OC(C)CC(N(C)C)C2O)[C@@](C)(O)CC(C)C(=O)[C@@H](C)C(O)[C@]1(C)O (stereo not given in full),-0.4%
CCC(/C=C/C(C)C1CCC2C3CC=C4CC(O)CC[C@@]4(C)C3CC[C@@]12C)C(C)C (stereo not given in full),-0.5%
CCC/C=C(\CCC)C(NS(=O)(=O)CC12CCC(CC1=O)C2(C)C)c1ccc(C(=O)OC)cc1 (stereo not given),-1.4%
Cc1cc(N)c2cc(OCCOc3ccc4nc(C)cc(N)c4c3)ccc2n1,18%[11.5 µM]
COc1nc(-c2ccccc2)cc(-c2ccc(OC)c(OC)c2)n1,-3.0%
NCC1O[C@@H](OC2C(N)C[C@H](N)[C@@H](O[C@H]3OC(CO)C(O)C(N)C3O)C2O)C(O)C(O)C1O (stereo not given in full),0.5%
CCC1=C2CC[C@H]3C(=O)N(C)C(=O)[C@H]3[C@H]2[C@@]2(Cc3ccccc3)C(=NCC(=O)OC)OC(=O)N2C1=O,0.9%
O=C(Nc1cccc(O)c1)c1ccc(Br)c(S(=O)(=O)N2CCCCC2)c1,-2.7%
CCOC(=O)C(=O)C1(C(=O)OCC)Oc2cc(OC)cc(OC)c2C(=O)C1c1ccccc1 (stereo not given),1.1%
CCOC(=O)C1=C(C)NC(=O)NC1c1cn(-c2ccccc2)nc1-c1cccs1 (stereo not given),0.0%
COc1ccc2ccccc2c1CN1CCN(C(=O)c2ccccc2)CC1,-0.1%
CC(=O)NC1C(O)C[C@@](O)(C(=O)O)OC1[C@@H](O)C(O)CO (stereo not given in full),1.0%
O=c1c2ccccc2c2ccccc2c(=O)n1CC1CCCO1 (stereo not given),2.4%
CCC1=C2CC[C@H]3C(=O)N(CC)C(=O)[C@H]3[C@H]2[C@@]2(Cc3ccccc3)C(=NCc3ccccc3)OC(=O)N2C1=O,1.4%
OCCN1CCN(c2ncnc3nc[nH]c23)CC1,-5.4%
COc1ccc(N(CC(=O)Nc2ccc3c(c2)OCO3)S(C)(=O)=O)c(OC)c1,-0.9%
CC(=O)OC[C@@H]1O[C@@H](O/N=C2/C[C@@H](O)[C@@H](O)[C@@H]3[C@H]4C(=O)N(c5ccc(F)cc5F)C(=O)[C@@H]4CC[C@@H]23)[C@H](OC(C)=O)[C@H](OC(C)=O)[C@@H]1OC(C)=O,2.8%[11.5 µM]
CC1C2CCC3C4CC=C5CC(N(C)C)CC[C@@]5(C)C4CC[C@@]32CN1C (stereo not given in full),-0.1%
COc1cc2c(C(=O)c3ccccc3)c3c4c(cc(OC)c(OC)c4c2cc1OC)CCN3C,-1.7%
C#CC(C)OC(=O)C(C)NC(=O)c1ccccc1 (stereo not given),-0.1%
C[C@@]12CCC3c4ccc(O)cc4CCC3C1CCC2O (stereo not given in full),0.2%
COc1cc(O)c(C(=O)/C=C/c2ccc(O)c(OC)c2)c(OC)c1,-2.7%
Cn1c(=O)c(C(=O)COC(=O)c2cc(C3CC3)nc3ccccc23)c(N)n(Cc2ccccc2)c1=O,7.8%
O=C(O)Cc1ccc(NC(=O)C2CC=CCC2C(=O)O)cc1 (stereo not given),-0.8%
O=C(O)C1=CC(O)[C@@H](O)C(O)C1 (stereo not given in full),1.0%

# Look-ups from the list.
# Cn1c(=O)c(C(=O)COC(=O)c2cc(C3CC3)nc3ccccc23)c(N)n(Cc2ccccc2)c1=O – AID923 = 7.8%
# O=c1c2ccccc2c2ccccc2c(=O)n1CC1CCCO1 (stereo not given) – AID923 = 2.4%
# COc1ccc(N(CC(=O)Nc2ccc3c(c2)OCO3)S(C)(=O)=O)c(OC)c1 – AID923 = -0.9%
# Cc1cc(N)c2cc(OCCOc3ccc4nc(C)cc(N)c4c3)ccc2n1 – AID923 = 18%[11.5 µM]
# CCC/C=C(\CCC)C(NS(=O)(=O)CC12CCC(CC1=O)C2(C)C)c1ccc(C(=O)OC)cc1 (stereo not given) – AID923 = -1.4%
# OCCN1CCN(c2ncnc3nc[nH]c23)CC1 – AID923 = -5.4%
# O=C(O)Cc1ccc(NC(=O)C2CC=CCC2C(=O)O)cc1 (stereo not given) – AID923 = -0.8%

# Next part
SMILES,AID923
CC(C)c1c(O)c(-c2cc3c(c(C(C)C)c2O)CCC2C(C)(C)CCC[C@@]32C)cc2c1CCC1C(C)(C)CCC[C@@]21C (stereo not given in full),-2.4%
COC(=O)c1ccc(C(NC(=O)OCc2ccccc2)/C(F)=C/[C@@H](C)C(=O)NCc2cc(C)on2)cc1 (stereo not given in full),0.2%
Cc1onc(-c2c(Cl)cccc2Cl)c1C(=O)NC1C(=O)N2C1SC(C)(C)C2C(=O)O (stereo not given),-1.1%
CC1(C)Oc2ccc3ccc(=O)oc3c2CC1O (stereo not given),-2.7%
CC(=O)[C@]1(O)CCC2C3C=C(Cl)C4=CC(=O)C5CC5[C@@]4(C)C3CC[C@]21C (stereo not given in full),-2.2%
O=C(c1ccc(-c2ccccc2)cc1)N1CCN(Cc2ccccn2)CC1,2.8%
COc1ccc2c(c1)OCC(Cc1ccc(OC)c(O)c1)C2=O (stereo not given),2.4%
O=C(CCc1ccc(O)cc1)c1c(O)cc(O)cc1O[C@H]1OC(CO)C(O)C(O)C1O (stereo not given in full),-5.3%
COc1ccc2cc(C(C)CO)ccc2c1 (stereo not given),0.0%
COc1ccc(C(=O)c2ccc(O)cc2)c(O)c1O,-1.5%
CCC1=C(OC(=O)N(CC)CC)N2C(=O)OC(=NCC3CC3)[C@]2(C)[C@H]2C1=CC[C@H]1C(=O)N(c3ccccc3)C(=O)[C@H]12,1.8%
CC1CCN(c2nc3c(c(=O)[nH]c(=O)n3C)n2CCCc2ccccc2)CC1,-4.0%
CCC1=C(OC(=O)N(CC)CC)N2C(=O)OC(=NCC3CC3)[C@]2(Cc2ccccc2)[C@H]2C1=CC[C@H]1C(=O)N(c3ccccc3)C(=O)[C@H]12,-0.7%
O=C(CN(c1cccc(C(F)(F)F)c1)S(=O)(=O)c1ccccc1)N1CCOCC1,-0.7%
Nc1nc(-n2cnnc2)nn1-c1ccccc1,3.2%
O=C(/C=C/c1ccc(O)cc1)c1c(O)cc(O)cc1O,-1.6%
CCC(C)C(NC)C(=O)O (stereo not given),0.7%
COc1ccc2c(c1)OCC(Cc1ccc(OC)c(OC)c1)C2O (stereo not given),0.6%&0.7%
COC(=O)c1cc(C(=O)CSc2nc(C)cc(C)n2)ccc1O,-0.3%
O=c1cc(-c2ccccc2)oc2cccc(O)c12,-0.9%&0.4%
CC(=O)OCC1=C(C(=O)O)N2C(=O)C(NC(=O)CSc3ccncc3)[C@@H]2SC1 (stereo not given in full),1.1%
O=C(/C=C/c1ccccc1)c1cccs1,-3.7%
O=C(c1ccccc1)N1CCN(C(=O)N2CCOCC2)CC1,-0.3%
CC(=O)Oc1c2c(c3c(c1CC=C(C)C)O[C@@]14C(=CC5CC1C(C)(C)OC4(C/C=C(\C)C(=O)O)C5=O)C3=O)OC(C)(CCC=C(C)C)C=C2 (stereo not given in full),2.2%
N[C@H](Cc1cnc[nH]1)C(=O)O,-2.7%
SMILES,AID923
COc1ccc(C)cc1NC(=O)c1ccoc1C,2.7%
O=c1c(O)c(-c2ccccc2)oc2cccc(O)c12,0.0%
C=CC(C1=CC(=O)C=CC1=O)c1ccccc1 (stereo not given),-1.5%
COC(=O)[C@@H]1C[C@@H]2CC[C@@H](O)C[C@@H]2N1Cc1ccc(N2CCN(C)CC2)cc1,-0.1%
CC(N)C(=O)OC(C)(C)Cc1ccc(Cl)cc1 (stereo not given),0.7%
CCCCCC(CC(=O)O)C(=O)O (stereo not given),-2.0%
CCC1=C2CC[C@H]3C(=O)N(CC)C(=O)[C@H]3[C@H]2[C@@]2(C)C(=O)N(CC(=O)OC)C(=O)N2C1=O,5.4%
COC(=O)c1ccc(C(NC(=O)OCc2ccccc2)/C(F)=C/[C@@H](C)C(=O)N(C)Cc2cccnc2)cc1 (stereo not given in full),2.7%
Clc1ccccc1C1SCC2Nc3ccccc3CN21 (stereo not given),0.1%
c1ccc(-c2ccc(-c3nc(-c4ccccn4)no3)cc2)cc1,1.6%
C=CCSc1nnc2c(n1)OC=Nc1ccccc1-2,-3.9%
CCC1=C(OC(=O)N(CC)CC)N2C(=O)OC(=NCCc3c[nH]c4ccccc34)[C@]2(C)[C@H]2C1=CC[C@H]1C(=O)N(CC(=O)OC)C(=O)[C@H]12,2.2%
CCC1=C(OC(=O)N(CC)CC)N2C(=O)OC(=NCc3ccccc3)[C@]2(C)[C@H]2C1=CC[C@H]1C(=O)NC(=O)[C@H]12,-1.1%
O=C1C=C(NCc2ccccc2)C2(CCCCC2)O1,1.2%
Nc1ncnc2c1ncn2C1OC(CO)C(O)C1O (stereo not given),-1.2%&-5.0%
COC(=O)CC1C(C)(C)C(OC(C)=O)C2CC3C4CC(=O)OC(c5ccoc5)[C@]4(C)CCC3[C@@]1(C)C2=O (stereo not given in full),0.1%
CCC(Sc1nncn1C)C(=O)Nc1nnc(-c2ccccc2Cl)s1 (stereo not given),-2.6%
C=C[C@](C)(O)CCC=C(C)C,-2.3%
COc1ccc(-c2n[nH]c(C)c2-c2cnn(-c3ccccc3)c2)c(O)c1,-0.4%
COCCN=C1OC(=O)N2C(=O)C3=C4C(C[C@H]5C(=O)N(CC(=O)OC)C(=O)[C@H]5[C@H]4[C@@]12Cc1ccccc1)[C@H]1C(=O)N(CC(=O)OC)C(=O)[C@H]1[C@H]3C (stereo not given in full),4.2%
CC[C@H](C)[C@H](NC(=O)OCC1c2ccccc2-c2ccccc21)C(=O)O,-4.3%
COC(=O)[C@@H]1C[C@@H]2CC[C@@H](O)C[C@@H]2N1Cc1ccc(Cl)cc1,2.8%
O=c1ccn([C@@H]2O[C@H](CO)[C@@H](O)[C@H]2O)c(=O)[nH]1,2.9%
CC(=O)OC1CC2C(C)(C)C(O)CC[C@@]2(C)C2CC[C@@]3(C)C(c4ccoc4)OC(=O)C4OC43[C@]12C (stereo not given in full),-1.6%
CSc1nnc(Cn2c(=O)sc3ccccc32)n1CCc1ccccc1,3.1%

# Pulled by structure from the list above:
SMILES,AID923
O=C1C=C(NCc2ccccc2)C2(CCCCC2)O1,1.2%
CC(=O)OC1CC2C(C)(C)C(O)CC[C@@]2(C)C2CC[C@@]3(C)C(c4ccoc4)OC(=O)C4OC43[C@]12C (stereo not given in full),-1.6%

# Some of the entries so far, with each value named.
> C=CC(C1=CC(=O)C=CC1=O)c1ccccc1 (stereo not given)
  AID923 = -1.5%

> COc1ccc(C)cc1NC(=O)c1ccoc1C
  AID923 = 2.7%

> c1ccc(-c2ccc(-c3nc(-c4ccccn4)no3)cc2)cc1
  AID923 = 1.6%

> CCC1=C(OC(=O)N(CC)CC)N2C(=O)OC(=NCc3ccccc3)[C@]2(C)[C@H]2C1=CC[C@H]1C(=O)NC(=O)[C@H]12
  AID923 = -1.1%

# Next part:
SMILES,AID923
COc1cccc(C(=O)Nc2cccc(SC)c2)c1,-0.3%
CC1CC[C@@]23CCC4(C)[C@@]5(C)CCC6C(C)(C)C(=O)CC[C@@]6(C)C5C=C[C@@]4(OC2=O)C3C1C (stereo not given in full),0.0%
FC(F)(F)c1ccc(CN2C[C@@H]3C(c4ccc(C(F)(F)F)cc4)C4(c5cccnc5)CC3(C4)[C@H]2c2ccccc2)cc1 (stereo not given in full),1.3%
Oc1ccccc1-c1nnc(COc2ccccc2)o1,1.7%
C=CCCCCCCCCCCCC(O)CC(O)COC(C)=O (stereo not given) (tested in a mixture with another compound),0.0%
OCCOCCN1CCN(C2=Nc3ccccc3Sc3ccccc32)CC1,-5.6%
COc1cc(SC)ccc1C(=O)Nc1ccc2c(c1)OCCO2,3.8%
CC(=O)OC1CC2C(C)(C)C(O)CCC2(C)C2CC[C@]3(C)C(=CC(=O)OC3c3ccoc3)C12C (stereo not given in full),-0.2%
COc1c(OC)c2occc2c2oc(=O)ccc12,0.7%
CC(=O)O[C@@]1(C(C)=O)CCC2C3C=C(Cl)C4=CC(=O)CC[C@]4(C)C3CC[C@]21C (stereo not given in full),-1.5%
CC(CCc1ccccc1)C(=O)NO (stereo not given),-1.2%
O=c1c2ccccc2nc2n1CCN2Cc1ccc(Cl)cc1,0.0%
CCCCc1nc(SCC(=O)Nc2cc(C)on2)n[nH]1,-0.6%
COC(=O)[C@@H]1C2CC3c4[nH]c5cc(OC)ccc5c4CCN3CC2C[C@H](OC(=O)c2cc(OC)c(OC)c(OC)c2)C1OC (stereo not given in full),17%
Cc1ccc2oc(=O)c3c4cc(O)c(O)c(C)c4oc3c2c1,1.6%
CC1(C)CC23C(=O)CCC(O)C2(C)CCC13 (stereo not given),0.5%
C=C1C2=CC(=O)OC(c3ccoc3)[C@]2(C)CCC1[C@]1(C)C=CC(=O)C(C)(C)C1CC(=O)OC (stereo not given in full),0.1%
COC(=O)c1ccc(C23CC4(C2)[C@H](CN(C)[C@@H]4c2ccccc2)C3c2ccc(Cl)nc2)cc1 (stereo not given in full),5.8%
CCCCCC/C=C\CCCCCCCc1cccc(O)c1C(=O)O,-0.1%
CC1CCCC(C)N1NC(=O)c1ccc(Cl)c(S(N)(=O)=O)c1 (stereo not given),-1.5%
COC(=O)CC1C(C)(C)C(=O)C2CC3=C(CC[C@]4(C)C3=CC(=O)OC4c3ccoc3)[C@@]1(C)C2=O (stereo not given in full),-0.3%
CCC1=C(OC(=O)N(CC)CC)N2C(=O)OC(=NCCOC)[C@]2(C)[C@H]2C1=CC[C@H]1C(=O)N(CC)C(=O)[C@H]12,0.6%
CC(=O)OC1CC2C(C)(C)C(=O)C=C[C@]2(C)C2CC[C@@]3(C)C(c4ccoc4)OC(=O)C4O[C@@]43[C@]12C (stereo not given in full),0.4%
OCC1OC(n2cnc3c(NCc4ccco4)ncnc32)C(O)C1O (stereo not given),0.9%
CC1(C)C=Cc2c(cc3occ(-c4ccc5c(c4)OCO5)c(=O)c3c2O)O1,2.7%
O=C(/C=C/C=C/c1ccc2c(c1)OCO2)N1CCCCC1,0.5%
